# VDR inhibitor: Inhibitors of the vitamin D receptor (VDR): qHTS; Vitamin D3 receptor (Homo sapiens), P11473; VDR-SRC2-3 peptide fluorescence polarization, 2 h; Potency, µM, for inactives: max response, negative = inhibition, most hits filed as inhibitors; 0.93% of 400,000 active; active means well fitted inhibition curve with a large enough effect; inconclusive means small, poorly fitted or top-dose-only effect, or another doubt; inactive means no such curve, though single readings can be large or run the other way; further: series mostly up to about 120 µM
# Target sequence (P11473 whole entry, looked up): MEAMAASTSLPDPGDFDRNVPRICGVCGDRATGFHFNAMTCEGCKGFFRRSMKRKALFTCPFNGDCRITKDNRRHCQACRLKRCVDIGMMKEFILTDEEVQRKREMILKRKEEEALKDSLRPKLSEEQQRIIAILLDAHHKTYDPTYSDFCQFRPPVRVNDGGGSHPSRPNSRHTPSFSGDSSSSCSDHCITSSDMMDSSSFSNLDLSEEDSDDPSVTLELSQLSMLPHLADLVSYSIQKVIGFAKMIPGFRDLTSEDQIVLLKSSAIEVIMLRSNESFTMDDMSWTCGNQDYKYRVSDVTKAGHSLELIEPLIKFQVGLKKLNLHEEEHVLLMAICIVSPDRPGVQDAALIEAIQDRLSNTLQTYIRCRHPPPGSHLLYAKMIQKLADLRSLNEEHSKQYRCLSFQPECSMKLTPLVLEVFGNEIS
#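 Fluorescence polarization assay of small-molecule disruption of VDR binding to coregulator peptide SRC2-3. Compounds and controls pin-transferred, then read after 2 h incubation at ambient room temperature.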
# * = called active by the depositor; ? = inconclusive; & = joins results of further samples. On the % scale 0 is the no-effect control and ±100 the full control effect; potency means the concentration at half of the fitted maximal effect. The list is partial; rates above refer to the full screens.
VDR inhibitor | Molecule
-28.7% | CC1(c2ccccc2)NC(=O)N(CC(=O)Nc2nc(-c3ccccn3)cs2)C1=O (stereo not drawn)
-3.7% | COc1ccc(-n2cnc3ccccc3c2=O)c([N+](=O)[O-])c1
28.2µM* | c1ccc(Nc2nc(-c3ccoc3)nc3ccccc23)cc1
-5.2% | CC(C)N1CCC(N2CCN(CC#Cc3ccccc3)CC2CCO)CC1 (stereo not drawn)
5.3% | CCOC(=O)c1sc2ccc(S(=O)(=O)N3CCOCC3)cc2c1N
11.1% | CC(C)Oc1cc(NC(=O)CS(=O)CC(=O)Nc2cccc(C(F)(F)F)c2)c(Cl)cc1Cl (stereo not drawn)
-5.9% | COc1cc2cc(C)c(SCC(=O)N3CCOCC3)nc2cc1OC
1.9% | Nc1nc(SCc2ccc3c(c2)OCCO3)n[nH]1
-19.1% | COc1ccccc1CCNC(=O)C(=O)NCC1OCCN1S(=O)(=O)c1ccc(Br)cc1 (stereo not drawn)
-9.0% | O=C(NCc1ccccc1)c1cccc(NS(=O)(=O)c2cccc3cccnc23)c1
-17.5% | Cc1ccc2c(c1)N(S(=O)(=O)c1ccc(CN3C(=O)c4cccnc4C3=O)s1)CCO2
8.0% | O=C(CSc1ncnc2ccccc12)NCCc1ccccc1
-2.3% | CC1=Nc2cc(C(=O)N3CCC(C)CC3)ccc2Sc2ccc(Cl)cc21
-6.2% | O=S(=O)(NCC(c1ccco1)N1CCN(c2ccccc2)CC1)c1cc(F)ccc1F (stereo not drawn)
12.8% | CCn1c(C(C)NC(=O)c2cccc(C)c2)n[nH]c1=S (stereo not drawn)
8.5% | COc1ccccc1-c1noc(-c2ccc(NCc3cccnc3)c([N+](=O)[O-])c2)n1
-10.4% | O=C(c1ccco1)N1CCN(C(c2ccccc2)c2nnnn2Cc2cccs2)CC1 (stereo not drawn)
-9.9% | CCCCNC(=O)c1cc(-c2ccc(OC)cc2)on1
-17.7% | CCOc1ccc(CN(C)c2ccc(S(=O)(=O)N3CCN(C)CC3)cc2[N+](=O)[O-])cc1OC
-6.7% | Cc1ccc(N=Nc2c(C)[nH]n(-c3ccccc3)c2=O)cc1Br
-6.2% | O=C(CCl)N(Cc1ccccc1)c1ccccc1
2.9% | CC(NC(=O)c1ccc(Cn2c(SCc3ccccc3)nc3cccnc32)cc1)c1ccccc1 (stereo not drawn)
0.1% | CC(=O)c1ccc(N2CCC(c3cc(-c4ccc(Cl)cc4Cl)n[nH]3)CC2)c([N+](=O)[O-])c1
? | CCOP(=O)(OCC)/C(C#N)=C/c1ccc([N+](=O)[O-])cc1
0.2% | CCc1nnc(NC(=O)CCC(=O)N2CCN(CCOc3ccc(C)cc3)CC2)s1
23.4% | Cn1cnnc1SCC(=O)Nc1sccc1C#N
-1.2% | COc1ccc(CSc2nc3ccccc3c(=O)n2CCCN2CCOCC2)cc1F
1.4% | O=C(CCCCn1c(=O)[nH]c2ccccc2c1=O)N1CCN(c2ncccn2)CC1
-14.0% | COC(=O)C1=C2SCC(=O)N2C(N)=C(C#N)C1
4.6% | CC(=O)c1c(C)[nH]c(C(=O)Nc2nc(-c3ccc(-c4ccccc4)cc3)cs2)c1C
-0.2% | Cc1ccc(C)c(N2CCN(S(=O)(=O)c3cn(C)c(C)n3)CC2)c1
-9.0% | Cc1c(NC(=O)COc2ncnc3c(Cl)cc(Cl)cc23)c(=O)n(-c2ccccc2)n1C
-2.8%&2.2% | CC1=C(C(=O)OCc2ccccc2)C(c2ccccn2)c2c(n(C)c(=O)n(C)c2=O)N1 (stereo not drawn)
-10.5% | CCOC(=O)/C(C#N)=C/Nc1ccccc1OC(F)(F)F
-6.1% | Cc1c(C)n(CC(O)CN2CCN(C)CC2)c2ccccc12 (stereo not drawn)
1.0% | O=C(NNC(=S)Nc1ccc(Br)cc1)c1ccccc1
-1.9% | Cc1nc2sc(-c3ccccc3)cc2c(=O)n1-n1cccc1
12.9% | CCOC(=O)c1ccccc1NC(=O)CN(c1ccccc1)S(=O)(=O)N(C)C
14.6% | CCOC(=O)C1CCC(CN(Cc2ccc(OC)cc2)S(=O)(=O)c2ccc(F)c(C(=O)Nc3c(C)cccc3C)c2)CC1 (stereo not drawn)
-15.3% | Cc1sc(NC(=O)Cc2ccc3c(c2)OCO3)nc1-c1ccc2c(c1)CCN2C(=O)c1cccc(F)c1
-4.0% | CCc1ccc(S(=O)(=O)NCCc2cn3ccc(C)cc3n2)s1
5.9% | C=CCn1c(=O)c2ccccc2n2c(SCc3c(C(=O)OCC)oc4ccccc34)nnc12
-29.1% | CC(=O)OC1CC2C(C)(C)C(O)CCC2(C)C2CC[C@]3(C)C(=CC(=O)OC3c3ccoc3)C12C (stereo partly drawn)
2.0% | Cc1c(CNCCCc2ccccc2)c(C(=O)O)c(C)n1Cc1cccc(Cl)c1
-11.8% | COC(=O)c1cc(C(=O)c2cccc(Cl)c2Cl)cn1C
-5.3% | COC(=O)CN(c1cc(Cl)ccc1OC)S(=O)(=O)c1ccc(OC)c(OC)c1
6.3% | COc1ccccc1OCCNC(=O)C1CC(=O)N(c2cccc(SC)c2)C1 (stereo not drawn)
-4.3% | O=C1CN(C(=O)CNCc2ccccc2)c2ccccc2N1
-6.1% | CCOc1ccc(NC(=O)C2CCN(S(=O)(=O)c3ccc4c(c3)N(C(C)=O)CCO4)CC2)cc1
-21.4% | CCn1nc(C)c(/C=N\NC(=O)c2cccc(OC)c2)c1C
79.4µM* | O=C(CC(Nc1ccc(Cl)cc1Cl)C(=O)O)c1ccccc1 (stereo not drawn)
-6.3% | COc1cccc(NC(=O)CN(C)C(=O)c2ccccc2OCC(=O)Nc2cccc(C(F)(F)F)c2)c1
-0.2% | Cc1cc(C)n(CC(=O)N/N=C/c2ccccn2)n1
-13.9% | Cc1ccc(CNC(=O)C2CCN(S(=O)(=O)c3ccc4c(c3)CC(C)N4C(=O)C3CC3)CC2)cc1 (stereo not drawn)
-22.2% | CCOC(=O)[C@H]1[C@H]2COc3ccc(Br)cc3[C@H]2N2C(=O)CNC(=O)[C@@]12C
-4.8% | CCN(CC)c1ccc(C2NC(=O)NC(C)=C2C(=O)Nc2ccccc2)cc1 (stereo not drawn)

# New compounds follow:
VDR inhibitor | Molecule
-7.9% | O=C(O)C1C2C=CC3(CN(C/C=C/c4ccccc4)C(=O)C13)O2 (stereo not drawn)
4.1% | COc1ccc(N2CCN(C(=O)C3Cc4ccccc4N3C(C)=O)CC2)cc1 (stereo not drawn)
8.4% | COC(=O)CCC(NS(=O)(=O)OCC(Cl)(Cl)Cl)c1ccccc1 (stereo not drawn)
20.7% | Cc1ccc(-c2nc3nc(C)cc(C)n3c2Nc2ccc3c(c2)OCCO3)cc1
13.3% | Cn1c(=O)c2c(nc(Br)n2CC(=O)c2cccs2)n(C)c1=O
11.3% | COc1ccc(Cn2c(CNC(=O)c3ccc(N(C)C)cc3)nc3cccnc32)cc1
-7.8%&-11.9% | CCn1c(=O)c(=O)n(CC)c2cc(S(=O)(=O)Nc3ccc(C)cc3)ccc21
-1.1% | COc1ccc(C(=O)N2CC(=O)Nc3ccc(Br)cc3C2c2ccc(F)cc2)cc1OC (stereo not drawn)
2.9% | CCOc1cc(C(=S)N2CCCCC2)ccc1OS(=O)(=O)c1ccc(Br)cc1
-6.9% | CCCCOc1cccc(C(=O)Nc2cccc(-c3nc4ncccc4o3)c2C)c1
9.1% | O=S(=O)(c1ccccc1)N1CCC(N2CCCCCC2)CC1
8.2% | CCn1c(CN2CCC(C)CC2)nc2cc(NC(=O)COc3ccc([N+](=O)[O-])cc3)ccc21
-2.6% | Nc1ncnc2c(C3OC(CO)C(O)C3O)scc12 (stereo not drawn)
4.3% | CC1(C)CC(=O)c2c(O)cc(OCC(=O)Nc3ccc(CCO)cc3)cc2O1
-9.8% | CC(=NNC(=O)c1ccc(NS(=O)(=O)c2cccs2)cc1)c1ccc(OCC(N)=O)cc1
-6.1% | O=C(CSc1nc2cc(Cl)ccc2s1)NCC1CCCO1 (stereo not drawn)
-4.6% | COc1ccc(S(=O)(=O)NCCc2cn3nc(C)c(C)nc3n2)cc1
5.1% | NC(=S)N/N=C/c1cccc(Br)c1
-23.7% | CC(C)N1CC2=C(OC(N)=C(C#N)C2c2cccnc2)/C(=C/c2cccnc2)C1 (stereo not drawn)
? | O=C(CSc1n[nH]c(=O)[nH]c1=O)N1CCCCCC1
-21.8% | O=C(O)CCC(=O)N(Cc1ccccc1)Cc1ccccc1
3.3% | N#Cc1nc(-c2ccccc2F)oc1NCc1cccc2c1OCO2
17.0% | Nc1cc(N)nc(SCc2cc([N+](=O)[O-])cc3c2OCOC3)n1
-3.3%&1.4% | Cc1ccc(C(=O)Nc2nc3nc(-c4ccccc4)cc(=O)n3[nH]2)cc1
8.0% | CC(C)c1cc(-c2cc(-c3ccc(Cl)cc3)on2)nc(NC2CCCC2)n1
-15.6% | CC(=O)N1CCN(c2ncnc3sc(-c4ccccc4)cc23)CC1
-7.8% | O=C(CCc1ccccc1)Nc1ccccc1C(=O)N1CCOCC1
3.1% | CCNc1nc(NC(C)C)nc(Nn2cnnc2)n1
15.8% | CC(C)CC(=O)Nc1ccc(Nc2ccccc2)cc1
8.3% | CC1=CN2C(=NC(=O)CC2(C)C(=O)N(CC(=O)NC2CCCC2)Cc2ccccc2)C=C1 (stereo not drawn)
0.5% | Cc1cccc(NC(=O)CN(C)S(=O)(=O)c2ccc3c(c2)CCC(=O)N3)c1C
-9.8% | NC(=S)NC1CCS(=O)(=O)C1 (stereo not drawn)
18.4%&5.1% | Cc1cc2c(cc1S(=O)(=O)N1CCCCC1)OCC(=O)N2
0.3% | Cc1cc(NC(=O)CN2C(=O)CCSc3ccccc32)no1
-18.3% | O=C(O)CSCC(=O)Nc1ccc(C(F)(F)F)cc1
-17.3% | CCOc1ccccc1N(C)S(=O)(=O)c1ccc2c(c1)N(C(C)=O)CCO2
-5.4% | Cc1cc(C)c(NC(=O)Cn2c(=O)n(Cc3ccc4c(c3)OCO4)c(=O)c3ccccc32)c(C)c1
-0.7% | O=C(Nc1cccc(C(F)(F)F)c1)n1cc(-c2ccccn2)c(N2CCOCC2)n1
? | CCC(C)NC(=O)CNC(=O)c1nn(-c2ccc(OC)cc2OC)c(=O)c2ccccc12 (stereo not drawn)
12.5% | CCOC(=O)C1CCN(C(=O)CCNS(=O)(=O)c2ccc3c(c2)CCN3C(=O)CC)CC1

# Overlap with the part before: 4 entries, followed by the next part.
VDR inhibitor | Molecule
-5.4% | Cc1cc(C)c(NC(=O)Cn2c(=O)n(Cc3ccc4c(c3)OCO4)c(=O)c3ccccc32)c(C)c1
-0.7% | O=C(Nc1cccc(C(F)(F)F)c1)n1cc(-c2ccccn2)c(N2CCOCC2)n1
? | CCC(C)NC(=O)CNC(=O)c1nn(-c2ccc(OC)cc2OC)c(=O)c2ccccc12 (stereo not drawn)
12.5% | CCOC(=O)C1CCN(C(=O)CCNS(=O)(=O)c2ccc3c(c2)CCN3C(=O)CC)CC1
-14.6% | CCOC(=O)c1nn(-c2ccccc2C)c(=O)cc1OCC(=O)Nc1cccc(OC)c1
-7.0% | COc1ccc(-c2ccc3oc(-c4ccc(OC)cc4)c(-c4ccc(OC)cc4)c3c2)cc1
1.8% | Cc1ccc(NC(=O)C(=O)NCC2CCN(C(=O)c3cccc([N+](=O)[O-])c3)CC2)cc1
44.6% | CCN1CCN(S(=O)(=O)Cc2ccccc2)CC1
-8.6% | Cc1ccc(C(=O)c2ncc[nH]2)cc1
4.7% | COCCN1Cc2cccc(C(=O)NC(C)c3cccs3)c2C1=O (stereo not drawn)
-22.5% | CC(OC(=O)c1cc(S(=O)(=O)N2CCOCC2)ccc1F)C(=O)NCC1CCCCC1 (stereo not drawn)
-16.4% | O=C(NC(=S)N1CCN(c2ccccn2)CC1)c1ccccc1

# 5 compounds out of the list, sorted by heavy-atom count, lowest first.
VDR inhibitor | Molecule
-6.2% | O=C(CCl)N(Cc1ccccc1)c1ccccc1
-9.9% | CCCCNC(=O)c1cc(-c2ccc(OC)cc2)on1
-1.9% | Cc1nc2sc(-c3ccccc3)cc2c(=O)n1-n1cccc1
1.8% | Cc1ccc(NC(=O)C(=O)NCC2CCN(C(=O)c3cccc([N+](=O)[O-])c3)CC2)cc1
8.3% | CC1=CN2C(=NC(=O)CC2(C)C(=O)N(CC(=O)NC2CCCC2)Cc2ccccc2)C=C1 (stereo not drawn)

# Next entries.
VDR inhibitor | Molecule
-10.0% | COc1c(OC)c2occc2c2oc(=O)ccc12
6.3%&11.0% | CCCc1cc(=O)[nH]c(SCC(=O)N2CCN(c3ccccc3)CC2)n1
-4.8% | COc1cc2c(cc1OC)-c1c(OC)c(OC)cc3ccnc(c13)C2=O
2.9% | Cc1ccc(S(=O)(=O)NCCc2ccc(S(N)(=O)=O)cc2)cc1
-2.6% | COc1ccc(NC(=O)CC2Oc3ccccc3NC2=O)c(OC)c1 (stereo not drawn)
-0.5% | CCOC(=O)c1cc(-c2ccccc2C)nn1Cc1cc(CC)no1
14.4% | Cc1ccc(C)c(CN2CCSCC2)c1
-20.8% | CNC(=O)/C(C#N)=C1\SC(Cc2ccc(F)cc2)C(=O)N1c1ccccc1C (stereo not drawn)
-23.8% | O=C(NCCCc1ccccc1)C1CCN(c2nnc(-n3cccc3)s2)CC1
-5.4% | Cc1cc(C)cc(NC(=O)c2ccc(CNc3c(N4CCOCC4)c(=O)c3=O)cc2)c1
14.4% | CCNC(=O)NC1(C(=O)Nc2ccc3c(c2)CCC3)CCCCC1
14.5% | Cc1cc(C)c(C#N)c(SCc2cc3c(cc2Cl)OCO3)n1
-13.4% | O=C(NCc1ccco1)c1ccc(COc2ccc(Cl)cc2)cc1
44.7µM* | O=C(CC1SC(=O)N(c2ccccc2)C1=O)Nc1cccc2ccccc12 (stereo not drawn)
2.0% | Cc1ccc([N+](=O)[O-])cc1NC(=O)CCSc1ccc(Cl)cc1
9.4% | O=C(C1=C(O)C(=O)N(CCN2CCOCC2)C1c1ccc([N+](=O)[O-])cc1)c1cc2ccccc2o1 (stereo not drawn)
-12.3% | COCCn1c(-c2ccco2)csc1=Nc1cccnc1
6.6% | NC(=O)c1nnsc1-c1ccco1

# High-throughput results: PubChem BioAssay, National Center for Advancing Translational Sciences (NCATS)
